Bfl-1 A1 inh: inhibitors of the anti-apoptotic protein A1, read as caspase activation; 330,000 compounds, 0.066% hits; caspase activation, % (test concentration not listed); MEF A1-2A-BIM cells, Caspase-Glo 3/7 luminescence, 3 h; percent of clofoctol response, vehicle zero;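 active = over half of replicate activation scores above 10%, or exactly half above 10 with the replicate mean above 10; inconclusive = replicate mean below 10 yet half the replicates above 10; inactive = over half of replicates below 10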;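 also: wells of about 30 µL received 50 nL stock; many hits fall short of the cut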
Ecoli rRNA inh: selective bacterial rRNA inhibition in E. coli | GFP signal change (wild-type ribosome), % (test concentration not listed) | 350,000 compounds, 1.6% hits | E. coli WT GFP vs humanized-ribosome RFP mutants, fluorescence, 24 h; active compounds read low; DMSO median 0, no signal -100 | AID 720706;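 active = significant combined selectivity score with lowered wild-type GFP, culture density cut under 30%, mutant RFP and density less affected; inactive = any of these conditions unmet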; also: one replicate is shown; some compounds called inactive have numbers as strong as hits
T cruzi repl: blocks replication of Trypanosoma cruzi; T. cruzi beta-gal in NIH3T3, luminescence, 90 h; inhibition, % (concentration not given with the values); 300,000 compounds, 1.4% hits;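 active = mean inhibition across valid replicates above about 55%, limit read from the data; inconclusive = mean below that limit but half or more replicates reach it; inactive = mean below it, under half of replicates reach it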;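 also: signal also drops with host cell toxicity which is not excluded here; 0% = plate median of DMSO wells and 100% = zero luminescence signal; higher percent means less beta-gal luminescence so fewer parasites; stock transfer was 50 nL into about 50 µL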
Vif A3G: inhibitors of Vif binding to APOBEC3G peptide, primary screen, biochemical, TR-FRET, GST-Vif 1-94, biotin-A3G peptide, dose response retest (AID 1117319). TR-FRET GST-Vif / biotin-A3G peptide binding; higher % means a stronger effect; test concentration not given here; strong numbers were not always called active. inhibition, %, or IC50 in µM where a hit was titrated. 260,000 compounds, 0.57% hits;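 active = above the screen mean plus three standard deviations and confirmed in dose response; inconclusive = results disagree or hit not tested in dose response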;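 also: Vif residues 1-94 fused to GST binding biotinylated APOBEC3G peptide 110-148; 0% = full assay without inhibitor and 100% = GST in place of GST-Vif; retest series ran down from 100 µM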
RanGTP-Impb inh: disruptors of Ran-importin-beta complex formation – biochemical, FRET, CFP-Ran, YFP-importin-beta, homogeneous, primary screen; 300,000 compounds, 1.1% hits; cell-free CFP-Ran/YFP-importin-beta FRET ratio; inhibition, % (no concentration beside the values); AID 2216;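 active = most replicates above 15%; inconclusive = exactly half above 15%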;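 also: 0% = DMSO wells and 100% = Ran loaded with GDP instead of GTP; wells of about 40 µL received 100 nL stock; the first replicate is given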
Calb FLC: C. albicans growth modulation with fluconazole; AID 1979; growth inhibition, % (concentration not given with the values); C. albicans CaCi-2 (fluconazole-resistant clinical isolate) + fluconazole, Alamar Blue growth, 48 h; 300,000 compounds, 0.57% hits;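 active = most replicates above 75%; inconclusive = exactly half above 75%; inactive = most below 75%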;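 also: all wells also contain fluconazole at 8 µg/ml as a sub-toxic cotreatment; 0% = median of DMSO wells and 100% = median of geldanamycin control wells; wells of about 8 µL received 7.5 nL stock; the first replicate is given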
Beta apoptosis: blocks beta cell apoptosis | protection from apoptosis, % (concentration not given with the values) | INS-1E cytokine-induced death, ATP luminescence, 48 h; percent of positive-control rescue, neutral wells zero | 300,000 compounds, 0.8% hits;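 active = all replicates at 75% or more, or half of them and the mean; inconclusive = half reach 75% but not the mean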;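 also: 0% = cytokine-treated negative control wells and 100% = positive control rescue; higher means more ATP so stronger rescue from cytokine killing; wells of about 40 µL received 100 nL stock; the first replicate is given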
AF4-AF9 inh: inhibitors of human MLL-AF4/AF9 interaction; P42568; AlphaScreen, biotin-AF4 peptide binding to FLAG-AF9; 350,000 compounds, 0.47% hits; inhibition, % at 10 µM;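 active = every replicate reaching a set inhibition limit, whatever the replicate mean, cut at about 25% in these data; inconclusive = mean inhibition reaches that limit but some replicates miss it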;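 also: 0% = plate neutral control median and 100% = total signal loss; the record names both 10 and 1 µM as test concentration; the first replicate is given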
Target sequence (P42568 whole entry, looked up): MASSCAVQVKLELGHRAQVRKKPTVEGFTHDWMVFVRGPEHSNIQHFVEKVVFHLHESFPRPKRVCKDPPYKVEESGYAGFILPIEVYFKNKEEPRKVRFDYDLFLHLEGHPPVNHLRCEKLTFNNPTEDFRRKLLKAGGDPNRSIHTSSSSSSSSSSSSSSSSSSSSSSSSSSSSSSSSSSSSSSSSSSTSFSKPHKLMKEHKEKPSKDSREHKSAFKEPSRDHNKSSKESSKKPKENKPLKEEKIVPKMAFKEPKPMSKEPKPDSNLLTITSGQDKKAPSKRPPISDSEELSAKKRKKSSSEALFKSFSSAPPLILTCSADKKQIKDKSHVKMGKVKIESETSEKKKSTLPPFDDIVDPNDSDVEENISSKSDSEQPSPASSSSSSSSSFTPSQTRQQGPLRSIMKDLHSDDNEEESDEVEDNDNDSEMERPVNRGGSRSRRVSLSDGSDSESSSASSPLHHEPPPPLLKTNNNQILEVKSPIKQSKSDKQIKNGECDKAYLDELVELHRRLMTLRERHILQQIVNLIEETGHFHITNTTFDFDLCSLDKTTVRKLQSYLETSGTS
Ecoli rRNA inh OD600: recorded beside Ecoli rRNA inh, whose call it bears; OD600 change, %; measured here: OD600 growth;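 optical density of the mix in the first replicate; 0 = DMSO median and -100 = no signal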
Ecoli rRNA inh RFP: second read-out of Ecoli rRNA inh, no call of its own (marks repeat the call); RFP signal change, %; measured here: RFP humanized mutant strains;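 first replicate; 0 = DMSO median and -100 = no signal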
* marks the source's active call; other numbers are inactive results; & = joins results of further samples. An excerpt. The share of hits here may be higher or lower than overall.

How did Cn1cc(Cl)c(C(=O)Nc2cnn(Cc3ccc(F)cc3)c2)n1 do in these assays?
Bfl-1 A1 inh: 1.8; Ecoli rRNA inh: -23; T cruzi repl: 3; Vif A3G: 18%; RanGTP-Impb inh: 2.5; Calb FLC: 6; Beta apoptosis: -1; AF4-AF9 inh: -16; Ecoli rRNA inh OD600: -6; Ecoli rRNA inh RFP: -10

How did COCC(=O)/C=C1\Sc2ccccc2N1C do in these assays?
Bfl-1 A1 inh: -0.2; Ecoli rRNA inh: 7; T cruzi repl: -9; Vif A3G: 3%; RanGTP-Impb inh: 2.5; Calb FLC: -2; Beta apoptosis: -3; AF4-AF9 inh: -32; Ecoli rRNA inh OD600: 2; Ecoli rRNA inh RFP: 3.6

How did CCN(CC(=O)Nc1ccc(OC)cc1)C(=O)c1cc([N+](=O)[O-])ccc1N1CCOCC1 do in these assays?
Bfl-1 A1 inh: 0.6; Ecoli rRNA inh: -4; T cruzi repl: 13; Vif A3G: 3%; RanGTP-Impb inh: 0.5; Calb FLC: -7; Beta apoptosis: 6; AF4-AF9 inh: -2.4; Ecoli rRNA inh OD600: 10; Ecoli rRNA inh RFP: -1.0

What do the screens show for `O=C(Nc1ccccc1C(=O)N/N=C/c1ccco1)c1ccc(F)cc1`?
Bfl-1 A1 inh: -3.8; T cruzi repl: -2; Vif A3G: 22%; RanGTP-Impb inh: -0.5; Calb FLC: 12; Beta apoptosis: 6

How did CCC(C(=O)N1CCN(S(=O)(=O)c2ccc(F)cc2)CC1)c1ccccc1 (stereo not given) do in these assays?
Bfl-1 A1 inh: 0.1; Ecoli rRNA inh: 0; Vif A3G: -3%; Beta apoptosis: -2; AF4-AF9 inh: -2.4; Ecoli rRNA inh OD600: -3; Ecoli rRNA inh RFP: 0.5

What do the screens show for `O=C(NCc1nc(-c2ccc(C(F)(F)F)cc2)no1)Nc1cc(Cl)cc(Cl)c1`?
Bfl-1 A1 inh: -0.1; Ecoli rRNA inh: -47*; T cruzi repl: 60*; Vif A3G: 2%; RanGTP-Impb inh: 0.4; Calb FLC: -8; Beta apoptosis: 110*; AF4-AF9 inh: 3.3; Ecoli rRNA inh OD600: -36*; Ecoli rRNA inh RFP: -12*

Results for CC(C)(C)NC(=O)CN(Cc1cccnc1)C(=O)c1csnn1 ?
Bfl-1 A1 inh: -0.5; T cruzi repl: 5; Vif A3G: 26%; RanGTP-Impb inh: -0.2; Calb FLC: -4; Beta apoptosis: -4

How did OC(CNc1nc2ccccc2s1)c1ccccc1 (stereo not given) do in these assays?
Bfl-1 A1 inh: 0.4; T cruzi repl: 2; Vif A3G: 33%; RanGTP-Impb inh: -0.2; Calb FLC: -11; Beta apoptosis: 5

How did COc1ccc(-c2cc(C3CCN(Cc4cccc(C(F)(F)F)c4)CC3)[nH]n2)cc1 do in these assays?
Bfl-1 A1 inh: -0.3; T cruzi repl: 62*; Vif A3G: -9%; RanGTP-Impb inh: 1.9; Calb FLC: 70*; Beta apoptosis: 14; AF4-AF9 inh: 6.7

What do the screens show for `O=C(NCC1CCCO1)C(=O)N/N=C/c1c(F)cccc1Cl` (stereo not given)?
Bfl-1 A1 inh: 1.1; Ecoli rRNA inh: 8; T cruzi repl: -4; Vif A3G: -1%; RanGTP-Impb inh: 12; Calb FLC: -7; Beta apoptosis: -7; AF4-AF9 inh: 0.5; Ecoli rRNA inh OD600: 7; Ecoli rRNA inh RFP: -2.0

Results for CC(=O)c1ccc(-n2c(CCC(=O)O)ccc2-c2cccs2)cc1 ?
Bfl-1 A1 inh: -0.4; Ecoli rRNA inh: 4; T cruzi repl: 2; Vif A3G: 8%; RanGTP-Impb inh: -13; Calb FLC: 21; Beta apoptosis: -5; AF4-AF9 inh: 1.6; Ecoli rRNA inh OD600: 8; Ecoli rRNA inh RFP: -1.4

How did CCCn1c(=N)c(C(=O)NCc2ccc3c(c2)OCO3)cc2c(=O)n3cccc(C)c3nc21 do in these assays?
Bfl-1 A1 inh: -0.5; Ecoli rRNA inh: 37; T cruzi repl: 64*; Vif A3G: 31%&-11%; RanGTP-Impb inh: 40*; Calb FLC: 4; Beta apoptosis: 18; AF4-AF9 inh: -0.5; Ecoli rRNA inh OD600: 11; Ecoli rRNA inh RFP: -8.9

How did Cc1cc(C)nc(N2CCCC(C(=O)NCCc3cccc(F)c3)C2)n1 (stereo not given) do in these assays?
Bfl-1 A1 inh: -0.2; Ecoli rRNA inh: 7; T cruzi repl: -4; Vif A3G: inconclusive; RanGTP-Impb inh: -4.1; Calb FLC: -16; Beta apoptosis: 6; AF4-AF9 inh: -4.8; Ecoli rRNA inh OD600: -2; Ecoli rRNA inh RFP: -7.8

What do the screens show for `CCOC(=O)CNC(=O)N1c2ccccc2Sc2ccccc21`?
Bfl-1 A1 inh: 0.5; Ecoli rRNA inh: 1; T cruzi repl: -3; Vif A3G: inconclusive; RanGTP-Impb inh: 8.1; Calb FLC: -8; Beta apoptosis: -4; AF4-AF9 inh: -1.0; Ecoli rRNA inh OD600: -6; Ecoli rRNA inh RFP: -2.6

Results for COc1ccc(CC2(CO)CCN(Cc3cc4ccccc4o3)CC2)cc1 ?
Bfl-1 A1 inh: 0.3; Ecoli rRNA inh: -21; T cruzi repl: 33; Vif A3G: 23%; RanGTP-Impb inh: -0.4; Calb FLC: -6; Beta apoptosis: 8; AF4-AF9 inh: 4.9; Ecoli rRNA inh OD600: -9; Ecoli rRNA inh RFP: -1.4

What do the screens show for `Cc1cc(=O)[nH]c(NN=C2C3CC4CC(C3)CC2C4)n1`?
Bfl-1 A1 inh: 0.2; Ecoli rRNA inh: 4; T cruzi repl: -8; RanGTP-Impb inh: 2.8; Calb FLC: -9; Beta apoptosis: -4; AF4-AF9 inh: 1.2; Ecoli rRNA inh OD600: 6; Ecoli rRNA inh RFP: 7.9

Results for CCN(CC)C(=O)c1[nH]cnc1C(=O)NCCCCCNC(=O)OC(C)(C)C ?
Bfl-1 A1 inh: -0.2; Ecoli rRNA inh: 4; Beta apoptosis: -4; AF4-AF9 inh: -9.4; Ecoli rRNA inh OD600: 4; Ecoli rRNA inh RFP: 4.4

What do the screens show for `COCCn1c(SCC(=O)N2CCCC2)nc2c([nH]c3ccccc32)c1=O`?
Bfl-1 A1 inh: 0.7; Ecoli rRNA inh: -6; T cruzi repl: -13; RanGTP-Impb inh: 2.4; Calb FLC: 4; Beta apoptosis: -5; AF4-AF9 inh: -0.5; Ecoli rRNA inh OD600: -6; Ecoli rRNA inh RFP: 1.5

Results for Cc1cc(C(=O)COc2ccccc2[N+](=O)[O-])c(C)n1C1CC1 ?
Bfl-1 A1 inh: 1.1; Ecoli rRNA inh: 1; T cruzi repl: 14; Vif A3G: -9%; RanGTP-Impb inh: 2.6; Calb FLC: -4; Beta apoptosis: -4; AF4-AF9 inh: 3.8; Ecoli rRNA inh OD600: 0; Ecoli rRNA inh RFP: -2.6

Results for O=C(O)/C=C/c1cn(Cc2ccccc2)nc1-c1ccccc1 ?
Bfl-1 A1 inh: 0.3; T cruzi repl: -7; Vif A3G: -6%; RanGTP-Impb inh: 1.5; Calb FLC: -5; Beta apoptosis: 2

What do the screens show for `CC(C)CSc1nnc2[nH]c(=O)cc(N)n12`?
Bfl-1 A1 inh: -0.2; T cruzi repl: -7; Vif A3G: 0%; RanGTP-Impb inh: -5.8; Calb FLC: -19; Beta apoptosis: -9

Results for Cc1ccccc1Nc1ccc([N+](=O)[O-])cn1 ?
Bfl-1 A1 inh: 0.6; Ecoli rRNA inh: -5; T cruzi repl: 3; RanGTP-Impb inh: -0.5; Calb FLC: -5; Beta apoptosis: -12; AF4-AF9 inh: 5.0; Ecoli rRNA inh OD600: -1; Ecoli rRNA inh RFP: 11

How did COC(=O)C1=C(C)N(CC(C)C)C(=O)C1 do in these assays?
Bfl-1 A1 inh: 0.0; T cruzi repl: 6; Vif A3G: 9%; RanGTP-Impb inh: -2.7; Calb FLC: 29; Beta apoptosis: 13

Results for c1ccc2c(c1)OCC(c1nnc3n1-c1ccccc1SC3)O2 (stereo not given) ?
Bfl-1 A1 inh: -0.2; T cruzi repl: 8; Vif A3G: -9%; RanGTP-Impb inh: -0.4; Calb FLC: -39; Beta apoptosis: -1

What do the screens show for `CN(C)/C=C/C(=O)c1ccc(Cl)c([N+](=O)[O-])c1`?
Bfl-1 A1 inh: -0.9; Ecoli rRNA inh: 4; T cruzi repl: -29; Vif A3G: -4%; RanGTP-Impb inh: -4.0; Calb FLC: 1; Beta apoptosis: 3; AF4-AF9 inh: 6.9; Ecoli rRNA inh OD600: 6; Ecoli rRNA inh RFP: -1.7

What do the screens show for `O=C(O)/C(=C\c1ccc(-c2ccccc2[N+](=O)[O-])o1)c1ccccc1`?
Bfl-1 A1 inh: -2.3; Ecoli rRNA inh: -22; T cruzi repl: 4; RanGTP-Impb inh: -0.7; Calb FLC: 21; Beta apoptosis: -6; AF4-AF9 inh: 5.4; Ecoli rRNA inh OD600: -37; Ecoli rRNA inh RFP: 0.2

Results for O=C(N1CCOCC1)N1CCOCC1 ?
Bfl-1 A1 inh: 0.1; T cruzi repl: -7; Vif A3G: -1%; RanGTP-Impb inh: -2.7; Calb FLC: 3; Beta apoptosis: -4

What do the screens show for `O=C(CSc1nnc(COc2ccccc2)n1-c1ccccc1)c1cccs1`?
Bfl-1 A1 inh: 0.1; T cruzi repl: 9; Vif A3G: -2%; RanGTP-Impb inh: 3.7; Calb FLC: 16; Beta apoptosis: -1

Results for O=C(Nc1ccc(Br)cn1)c1ccc2ccccc2c1 ?
Bfl-1 A1 inh: -1.5; Ecoli rRNA inh: 13; T cruzi repl: 0; Vif A3G: -12%; RanGTP-Impb inh: 4.8; Calb FLC: -1; Beta apoptosis: 3; AF4-AF9 inh: -10; Ecoli rRNA inh OD600: 15; Ecoli rRNA inh RFP: 2.8

How did Cc1ccc2[nH]c3c(c2c1)CN(C(=O)CN1CCN(C(=O)c2ccco2)CC1)CC3 do in these assays?
Bfl-1 A1 inh: 0.3; Ecoli rRNA inh: 4; T cruzi repl: 4; Vif A3G: 4%; RanGTP-Impb inh: -43; Calb FLC: -5; Beta apoptosis: -4; AF4-AF9 inh: -0.1; Ecoli rRNA inh OD600: -1; Ecoli rRNA inh RFP: 4.9

How did CCCC(=O)Nc1cc(C)c(NC(=O)c2ccccn2)cn1 do in these assays?
Bfl-1 A1 inh: -0.5; T cruzi repl: -10; Vif A3G: 6%; RanGTP-Impb inh: -1.3; Calb FLC: -2; Beta apoptosis: -2

Screening data deposited in PubChem by several laboratories.
